gsp antagonist: qHTS for Antagonists of gsp, the Etiologic Mutation Responsible for Fibrous Dysplasia/McCune-Albright Syndrome: qHTS | gsp-mutant cells, cAMP HTRF, 30 min; control for the full effect not named in the record | Potency, µM (highest dose often 76.9 µM), for inactives: at the highest dose activity change, negative = inhibition, hits mostly inhibitors | actives 0.4% (n = 340,000); active = falling curve of any shape with a large fitted effect; inconclusive = falling curve, mostly with a smaller effect; inactive = flat or rising curve; cell line not stated here;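 also: intracellular cAMP measured with PDE inhibitor Ro 20-1724 present during compound exposure; potency is read from the fitted curve at half-maximal effect; % is scaled to controls: 0 for no effect and ±100 for the full control effect; nearly all actives have a fitted effect of over 65% in size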
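HTRF cAMP measurement after 30 min RT detection following 30 min, 37C compound treatment alongside […] (added as 300 uM solution) in G418-selected cells seeded at 2000/well and grown 16–24 h.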
ClpP mod: qHTS Assay for Activators of ClpP. ATP-dependent Clp protease proteolytic subunit (Bacillus subtilis (strain 168)), P80244. purified B. subtilis ClpP, FRET peptide cleavage, 20 min. Potency, µM (top dose mostly 57.5 µM), without a hit: at the highest dose activity change, negative = active. actives 1.9% (n = 340,000). AID 651965, 2013; active = well fitted falling curve with a large enough effect; inconclusive = small, poorly fitted or top-dose-only effect; inactive = no such curve, though single readings can be large or run the other way; also: potency is read from the fitted curve at half-maximal effect; the source files actives as falling curves though it sought activators and does not explain the sign; nearly all actives have a fitted effect of over 65% in size; many hits overshoot -100%
Target sequence (P80244 whole entry, looked up): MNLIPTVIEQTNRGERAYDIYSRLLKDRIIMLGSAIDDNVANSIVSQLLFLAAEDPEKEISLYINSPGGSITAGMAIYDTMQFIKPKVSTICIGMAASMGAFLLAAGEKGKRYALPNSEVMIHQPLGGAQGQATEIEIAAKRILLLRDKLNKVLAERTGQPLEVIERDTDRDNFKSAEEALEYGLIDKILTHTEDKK
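Purified B. subtilis ClpP, 10 microg/mL final in Tris/HCl pH8 with KCl, BSA, glycerol and Tween-20, cleaved an Abz/nitrotyrosine-quenched decapeptide. Fluorescence (ex 320, em 430) was read at 0 and 20 min at room temperature. Delta was normalized to 5.8 microM ADEP and DMSO/no-enzyme controls.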
gsp agonist: qHTS for Agonist of gsp, the Etiologic Mutation Responsible for Fibrous Dysplasia/McCune-Albright Syndrome: qHTS; gsp mutant cells, cAMP HTRF, 30 min; control for the full effect not named in the record; Potency, µM (doses to about 76.9 µM), without a hit: at the highest dose activation (cAMP increase), actives largely listed as activators; actives 0.13% (n = 340,000); active = well fitted activation curve with a large enough effect; inconclusive = small, poorly fitted or top-dose-only effect, or another doubt; inactive = no such curve, though single readings can be large or run the other way; cell line not stated here;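 also: phosphodiesterase inhibitor Ro 20-1724 added with compounds to block cAMP breakdown; potency is read from the fitted curve at half-maximal effect; nearly all actives have a fitted effect of over 60% in size; about a fifth of the inactives were tested at one dose only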
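Cells in DMEM/10% FBS with G418 were pretreated with compounds in DMSO plus […] (300 uM stock) for 30 min at 37C. cAMP was measured by HTRF (cAMP-d2 plus anti-cAMP antibody-K) after 30 min at room temperature.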
Sfp PPTase inh: qHTS Assay for Inhibitors of Bacillus subtilis Sfp phosphopantetheinyl transferase (PPTase). 4'-phosphopantetheinyl transferase ffp (Bacillus subtilis), Q9F4F7. AID 1490, 2009. actives 3.5% (n = 310,000). Biochemical Sfp PPTase activity, qHTS. Potency, µM, inactives show max response, negative = inhibition, most hits filed as inhibitors; active = well fitted inhibition curve with a large enough effect; inconclusive = small, poorly fitted or top-dose-only effect, or another doubt; inactive = no such curve, though single readings can be large or run the other way;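 also: the enzyme is Sfp with the accession as filed and its product quenches rhodamine fluorescence; potency is read from the fitted curve at half-maximal effect; 0% = enzyme reaction without inhibitor and -100% = no enzyme wells; top concentration of the series not given in the record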
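Fluorescence-quenching assay with 15 nM Sfp, 5 uM rhodamine-CoA and 12.5 uM BHQ-2-labelled ybbR peptide in pH 7.6 Hepes/MgCl2 buffer. Enzyme was pre-incubated with compound for 15 min at room temperature. Rate was taken from the 30-min fluorescence change (525/598 nm).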
TRPV1 potentiator: HTS Assay for Compounds that Act as Potentiators of the Vanilloid Receptor 1. actives 0.02% (n = 320,000). potentiation, % at 8.33 µM. TRPV1-expressing cells, Fluo-8 calcium influx, capsaicin EC20 potentiation; host cell line not named in the record; control for the full effect not named in the record. AID 540277, 2011. Transient receptor potential cation channel subfamily V member 1 (Homo sapiens), Q8NER1; active means potentiation above 80%; inconclusive means 30% to 80%; inactive means below 30%; also: 0% is about no effect
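TRPV1-expressing cells were cultured overnight at 35.5C and loaded with Fluo-8 calcium dye for 40 to 90 min at room temperature. After a 10 s baseline, compound was added and calcium influx was read kinetically for 3 min (ex 480/em 520 nm).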
D2 PAM: Beta-Arrestin HTS for Positive Allosteric Modulators of the Human D2 Dopamine Receptor: Potentiators. D(2) dopamine receptor (Homo sapiens), P14416. DiscoveRx D2 beta-arrestin cells, luminescence, 90 min; 100% = 57 uM dopamine signal. potentiation, % (test concentration not listed). actives 0.23% (n = 360,000). AID 624464, 2012; active = potentiation of 50% or more; inconclusive = 30% to 50%; inactive = 30% or less;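 also: compound concentration not given in the record; tested on top of an EC20 dose of dopamine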
Target sequence (P14416 whole entry, looked up): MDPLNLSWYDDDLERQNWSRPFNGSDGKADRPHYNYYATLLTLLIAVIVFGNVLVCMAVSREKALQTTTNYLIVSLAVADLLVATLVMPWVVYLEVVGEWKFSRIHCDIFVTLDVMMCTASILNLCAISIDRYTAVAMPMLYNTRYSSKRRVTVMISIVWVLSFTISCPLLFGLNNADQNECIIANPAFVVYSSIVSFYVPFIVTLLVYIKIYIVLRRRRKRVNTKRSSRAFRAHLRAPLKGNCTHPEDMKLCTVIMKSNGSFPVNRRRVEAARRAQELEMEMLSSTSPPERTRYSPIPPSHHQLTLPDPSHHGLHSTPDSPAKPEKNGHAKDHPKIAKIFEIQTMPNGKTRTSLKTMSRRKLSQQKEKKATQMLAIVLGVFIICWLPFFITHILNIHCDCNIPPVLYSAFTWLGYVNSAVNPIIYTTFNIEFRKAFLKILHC
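PathHunter beta-arrestin assay in DiscoveRx D2 cells. Compounds were added with an EC20 of dopamine (50 nM final) for 90 min at 37 deg C. Luminescence was read 1 h after detection reagent, with 57 uM dopamine as the EC100 control.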
Menin-MLL FL inh: qHTS Assay for Inhibitors Targeting the Menin-MLL Interaction in MLL Related Leukemias: Competition With Fluorescein Labeled MLL-derived Peptide; AID 1766, 2009; FP activity change, % at 61.4 µM; Fluorescence polarization, fluorescein-MLL peptide displacement from menin; 290,000 tested, under 10 active; inconclusive = falling polarisation curve, or a change in total fluorescence; inactive = total fluorescence flat and polarisation flat or rising; no compound was filed as active; the % refers to the polarisation; negative = inhibition;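 also: % of control where 0% means no effect; inhibitors lower the polarisation; unlabelled MLL peptide was the positive control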
* hit, by the source's call; ? = inconclusive; . = no result given; [ ] = remark or other dose.

SMILES	gsp antagonist	ClpP mod	gsp agonist	Sfp PPTase inh	TRPV1 potentiator	D2 PAM	Menin-MLL FL inh
CCOC(=O)N1CCN(CC(O)COc2ccc3c(c2)CCC3)CC1 (stereo not given)	-8%	-0.5%	-25%	12%	-7	-17	.
COc1ccccc1NC(=O)C(=O)N1N=C(C(C)C)CC1(O)C(F)(F)F (stereo not given)	-6%	-1.2%	-5%	15%	.	-3	-0.1
O=C1c2oc3ccccc3c(=O)c2C(c2cccc(Br)c2)N1Cc1ccco1 (stereo not given)	-4%	0.5%	24%	3%	-1	-1	1.7
CCc1cccc(NC(=O)CCCSc2nc3ccccc3[nH]2)c1	1%	-8.9%	2%	3%	10	3	.
N#C/C(=C(/O)Cc1ccccc1)P(=O)(c1ccccc1)c1ccccc1	-7%	.	-13%[15.4 µM]	9%	7	-9	9.8
COc1ccccc1NC(=O)C1=C(C)Nc2ncnn2C1c1ccc(C)o1 (stereo not given)	1%	0.7%	?	21%	-4	?	-6.8
O=C(N/N=C/c1ccncc1)c1cccc(N/N=C/c2ccncc2)c1	-25%	.	4%[15.4 µM]	14%	17	9	-4.0
CN(C)c1cc[n+](CC(=O)Nc2ccc([N+](=O)[O-])cc2Cl)cc1	6%	1.2%	11%	7%	.	-28	1.1
C=CCn1c(CCNC(=O)c2ccccc2F)nnc1SCC(=O)Nc1nc2ccccc2s1	-17%	0.4%	-35%	16%	6	-5	-1.5
CC(C)=CCN1CCN(Cc2c(C)nn(C)c2Cl)CC1CCO (stereo not given)	10%	.	-12%	12%	2	-6	-4.0
CCOc1ccc2[nH]c(=O)c(CN(Cc3ccccc3)C(=O)N3CCCC3)cc2c1	4%	?	-28%	16%	-12	-8	1.6
Cc1ccc(SC2=C(C(=O)O)CCCC2)cc1	-7%	.	3%	18%	19	0	0.9
C=CCC1(O)C(=O)N2C(=C1C(=O)N1CCOCC1)c1ccccc1CC2(C)C (stereo not given)	-4%	0.6%	17%	11%	-12	-6	2.1
Cc1ccccc1OCCOC(=O)c1cc(S(=O)(=O)N2CCCCC2)ccc1N1CCOCC1	-17%	-11%	-9%	.	2	-24	.
Cc1ccc(-n2c(C)nnc2SCC(=O)NNC(=O)c2ccco2)cc1	-21%	.	18%[15.4 µM]	5%	4	-17	-0.5
Cc1cccc(-n2ncc3c(NC(C)C)ncnc32)c1	-9%	5.4%	-15%	18%	-10	1	1.0
COc1ccc(NC(=O)CSc2ccc(-c3sc(C)nc3C)nn2)cc1	-21%	-0.7%	17%[15.4 µM]	13%	-10	-20	.
CCOC1(OCC)N=C(N)C2(C#N)C(c3cccc(OC)c3OC)C12C#N (stereo not given)	1%	-0.5%	-4%	-20%	5	3	4.3
Cc1cc(C(=O)NCc2nc(-c3ccccc3)no2)ccc1[N+](=O)[O-]	2%	-1.3%	0%[15.4 µM]	12%	-6	7	0.5
Cc1ccc2c(Cl)cc(Cl)c(OCC(=O)N3CCOCC3)c2n1	-7%	3.9%	-2%	.	-17	-11	.

The final 6 entries of the section above open the next one.
SMILES	gsp antagonist	ClpP mod	gsp agonist	Sfp PPTase inh	TRPV1 potentiator	D2 PAM	Menin-MLL FL inh
Cc1ccc(-n2c(C)nnc2SCC(=O)NNC(=O)c2ccco2)cc1	-21%	.	18%[15.4 µM]	5%	4	-17	-0.5
Cc1cccc(-n2ncc3c(NC(C)C)ncnc32)c1	-9%	5.4%	-15%	18%	-10	1	1.0
COc1ccc(NC(=O)CSc2ccc(-c3sc(C)nc3C)nn2)cc1	-21%	-0.7%	17%[15.4 µM]	13%	-10	-20	.
CCOC1(OCC)N=C(N)C2(C#N)C(c3cccc(OC)c3OC)C12C#N (stereo not given)	1%	-0.5%	-4%	-20%	5	3	4.3
Cc1cc(C(=O)NCc2nc(-c3ccccc3)no2)ccc1[N+](=O)[O-]	2%	-1.3%	0%[15.4 µM]	12%	-6	7	0.5
Cc1ccc2c(Cl)cc(Cl)c(OCC(=O)N3CCOCC3)c2n1	-7%	3.9%	-2%	.	-17	-11	.
NC(=O)c1c(N)sc2c1CCCCC2	-3%	-4.3%	?	22µM*	-2	26	?
CCCNC(=S)NC1CC2CCCC(C1)N2CC(C)C (stereo not given)	1%	0.4%	0%	3%	9	-24	2.1
CCN(CC)S(=O)(=O)c1cccc(C(=O)NCC(=O)OCC(=O)NCc2ccccc2)c1	-22%	0.4%	2%	17%	-9	7	2.4
O=C(Nn1c(-c2ccncc2)nc2ccccc2c1=O)c1ccc([N+](=O)[O-])cc1Cl	-9%	.	0%	18%	-1	3	-8.9
CCOc1ccc(NC(=O)CCNc2c(N3CCCC3)c(=O)c2=O)cc1	0%	-2.4%	-4%	9%	4	2	0.0
COCCC1CCCCN1C(=O)c1ccc(OC2CCN(C(C)=O)CC2)c(OC)c1 (stereo not given)	6%	0.5%	24%	4%	4	-6	.
Cc1ccc(SCCc2ccc(C)nc2)cc1	-15%	1.2%	1%	4%	1	-22	-1.7
CC(=O)n1nc(-c2ccccc2)nc1NCc1cccs1	-14%	0.7%	-10%[15.4 µM]	6%	-11	-24	-5.2
O=C(COC(=O)c1cc(Cl)cc(Cl)c1)NCCN1C(=O)CSC1=O	12%	-0.9%	-47%[inhibitor]	-1%	-13	-8	0.1
COc1cccc(NC(=O)NC(=O)c2c(C)cc(Cl)nc2Cl)c1	-13%	0.9%	-7%	-1%	-11	-4	0.3
Cc1cn([C@H]2C[C@H](O)[C@@H](CNCc3ccccc3)O2)c(=O)[nH]c1=O	.	-1.6%	-75%	.	.	3	.
Cc1nc2ccccc2nc1OCc1ccc([N+](=O)[O-])cc1	-4%	.	-1%	2%	-28	-6	-1.3
COc1ccc(N2CCN(C(=O)COC(=O)c3ccc(Cl)nc3)CC2)cc1	5%	2.7%	-4%	.	-14	-8	.
O=C(N/N=C\c1ccc(OC(=O)c2cccs2)cc1)c1ccc(Cl)cc1	6%	-3.8%	-3%	-10%	4	-11	3.2
COCc1cc(=O)[nH]c(SCCS(=O)(=O)c2ccc(Cl)cc2Cl)n1	-6%	2.2%	-29%	79µM*	-18	1	2.5
Cc1cc(OCC(=O)OCC(=O)NCc2cccs2)ccc1Cl	3%	3.8%	-2%[15.4 µM]	.	.	-2	.
C=CCN1C(=O)N(c2ccc(F)cc2)C(=O)C1CC(=O)Nc1ccc(Cl)cc1 (stereo not given)	-2%	.	0%[15.4 µM]	2%	-2	-5	2.7
Clc1ccc(OCCCCCN2CCCC2)c(Br)c1	15%	.	5%[15.4 µM]	-55%	15	-25	0.0
CN1CCN(CC(=O)N2CCn3c4c(c5cc(C6CCCCC6)ccc53)CCCC42)CC1 (stereo not given)	9%	-19%	8%	?	11	-21	-2.5
COc1ccc(CNC(=O)/C=C/c2ccc(S(=O)(=O)N3CCOCC3)cc2)cc1	.	.	-2%[15.4 µM]	15%	-1	-7	0.3
CCOc1ccccc1N1CCN(C(=O)CCCN2C(=O)c3cccc4cccc(c34)C2=O)CC1	-14%	-12%	0%	-4%	1	-15	-2.5
O=C(CCC1CCCC1)N1CCN(C(=O)c2ccco2)CC1	0%	0.6%	2%	-10%	30	-12	-0.5
Cc1nc2c(C)cccc2cc1C(=O)N/N=C/c1ccc(C(=O)O)cc1	6%	.	21%[15.4 µM]	29%	-12	-1	4.2
Clc1ccc(Cl)c(-c2nc(-c3ccncc3)no2)c1	4%	-1.6%	-12%[15.4 µM]	7%	9	0	-0.7
CCc1nc2ccc(C(=O)N3CCN(CC)CC3)cc2nc1CC	12%	-2.8%	?	6%	-5	-13	2.3
O=C(O)c1ccc2c(c1)nnn2C1CCCCC1	-9%	-2.0%	-29%	17%	1	14	3.0
Cc1cc(C)cc(NC(=S)NCCCN2CCOCC2)c1	13%	-0.4%	22%	3%	-4	-2	-15
CCOC(=O)N/N=C/c1cn(Cc2ccc(Cl)cc2)c2ccccc12	6%	0.4%	6%	22%	?	4	.
CCN(CC(=O)Nc1ccc2c(c1)OCCO2)CC(=O)Nc1cc(C)on1	-1%	0.7%	16%	2%	-14	-15	-1.8
O=S(=O)(NCc1ccc2c(c1)OCO2)c1c(F)cc(F)cc1Br	1%	.	2%	22%	11	-6	-0.7
CCNC(=O)C(=O)c1c(-c2ccccc2)[nH]c2ccccc12	2%	.	18%	8%	10	-4	-8.2
O=C(NCCOc1ccccc1)c1ccc2c(c1)OCO2	10%	-3.0%	-8%	17%	-9	-8	-1.7
O=C1CCCN2N=C(SCC(=O)Nc3cccc(F)c3)SC2=N1	-4%	.	12%	13%	-4	-7	-5.7
Cc1c(C)n(C(=O)CSc2nncn2C)c2ccccc12	-1%	17%	5%	8%	0	3	4.2
COc1ccc2cc(-c3csc(-c4cccnc4)n3)ccc2c1	7%	-7.7%	?	5%	13	-16	1.8
COc1cccc(NC(=O)CN(C)C(=O)c2cc3c(s2)CCC(C)C3)c1 (stereo not given)	0%	-1.0%	-37%[inhibitor]	.	8	-13	.
Cc1cccc(OCC(=O)Nc2nonc2NC(=O)COc2cccc(C)c2)c1	9%	0.3%	25%	.	.	17	.
CC(=O)N=c1sc2c3ccccc3ccc2n1C	2%	-17%	14%	22%	-2	-24	2.3
CN(C)CCn1nnc2c(=O)oc3ccccc3c21	-11%	.	-28%	29%	1	-1	-2.3
